HPGD inh: qHTS Assay for Inhibitors of HPGD (15-Hydroxyprostaglandin Dehydrogenase); 15-hydroxyprostaglandin dehydrogenase [NAD(+)] (Homo sapiens), P15428; purified HPGD, NADH fluorescence kinetic, PGE2 substrate; Potency, µM, for inactives: at the top dose activity change, negative = inhibition, hits mostly inhibitors; 150,000 compounds, 4.3% hits; active = well fitted inhibition curve with a large enough effect (not every such curve was filed as active); inconclusive = small, poorly fitted or top-dose-only effect, or another doubt; inactive = no such curve, though single readings can be large or run the other way;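 further: top concentration of the series not given in the record; plate controls included wells without enzyme; inactives centre near -10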
Target sequence (P15428 whole entry, looked up): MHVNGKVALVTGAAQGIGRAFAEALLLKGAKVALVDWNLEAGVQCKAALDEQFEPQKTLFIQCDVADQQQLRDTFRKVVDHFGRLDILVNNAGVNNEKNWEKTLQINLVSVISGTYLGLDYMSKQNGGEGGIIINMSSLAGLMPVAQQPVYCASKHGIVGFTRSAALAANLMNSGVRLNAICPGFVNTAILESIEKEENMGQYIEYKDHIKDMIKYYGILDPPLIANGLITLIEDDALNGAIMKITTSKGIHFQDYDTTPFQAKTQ
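20 nM HPGD preincubated 15 min at room temperature with compound in 50 mM Tris-HCl pH 8, 0.01% Tween 20. Started with 1 mM NAD+ and 30 uM prostaglandin E2; NADH fluorescence (360/450 nm) read 5 times over 30-s intervals, last minus first.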
Numbers without * were called inactive; ? = inconclusive; & = joins results of further samples; ! = not active in a repeat. On the % scale 0 is the no-effect control and ±100 the full control effect; potency means the concentration at half of the fitted maximal effect. An excerpt, so the mix of outcomes need not match the whole.

| mol | HPGD inh |
| --- | --- |
| CN1CCOC(c2ccccc2)c2ccccc2C1 (stereo unspecified) | -3.4% |
| Cc1c(I)c(=O)n(-c2ccccc2)n1C | -5.3% |
| C=CC1=C(C(=O)O)N2C(=O)[C@@H](NC(=O)C(N=O)c3csc(N)n3)[C@H]2SC1 (stereo partly specified) | ? |
| CCCCCCN | -9.3% |
| CN(C)CCOC(C)(c1ccccc1)c1ccccn1 (stereo unspecified) | 1.1%&-16.1%&-0.6% |
| C/C=C\C(=O)N(CC)c1ccccc1C | -13.7% |
| CC(=O)NC(Cc1ccccc1)C(=O)O (stereo unspecified) | 0.0% |
| CCOC(=O)c1ccc(N)cc1 | -9.4%&-2.5% |
| CC1(C)O[C@@H]2C[C@@H]3[C@H]4C[C@@H](F)C5=CC(=O)C=C[C@]5(C)[C@@]4(F)[C@@H](O)C[C@]3(C)[C@]2(C(=O)CO)O1 | 1.3% |
| CCN(CC)CCNC(=O)c1cc(Cl)c(N)cc1OC | 0.9%&-9.7%&1.0%&2.2% |
| CC(C(=O)O)c1ccc(C(=O)c2cccs2)cc1 (stereo unspecified) | ? |
| Cc1c(NC(=O)c2cccnc2)c(=O)n(-c2ccccc2)n1C | -1.0%&4.7% |
| OCCN1CCN(CCCN2c3ccccc3Sc3ccc(Cl)cc32)CC1 | -4.9%&-12.0%&-3.0%&5.3% |
| O=C(O)[C@H]1[C@H]2C[C@H]3c4[nH]c5ccccc5c4CCN3C[C@@H]2CC[C@@H]1O | -25.5% |
| O=C(CCNNC(=O)c1ccncc1)NCc1ccccc1 | -7.3%&-8.6%&-1.2% |
| CCC(=O)O | -11.9% |
| COC(=O)c1ccc(O)cc1 | 3.4% |
| CC12CCC(CC1)C(C)(C)O2 | -0.5%&-8.7% |
| Oc1cc(O)c2c(c1)O[C@H](c1ccc(O)c(O)c1)[C@@H](O)[C@@H]2c1c(O)cc(O)c2c1O[C@@H](c1ccc(O)c(O)c1)[C@H](O)C2 | 0.2% |
| O=C(CCN1CCC(c2ccccc2)C1)c1ccc2c(c1)OCCO2 (stereo unspecified) | -14.2% |
| COc1ccc(/C=C/C(=O)Nc2ccccc2C(=O)O)cc1OC | 14.1µM*! |
| CC(=O)Nc1ccc(C(=O)O)cc1 | -2.9% |
| O=C1c2ccc(O)c(O)c2C(=O)c2c(O)ccc(O)c21 | 11.2µM* |
| Cc1cc(-c2ccccc2)nnc1NCCN1CCOCC1 | -9.8%&-8.8%&-4.9% |

Reprinted from the part before: 3 compounds; new compounds follow.
| mol | HPGD inh |
| --- | --- |
| CC(=O)Nc1ccc(C(=O)O)cc1 | -2.9% |
| O=C1c2ccc(O)c(O)c2C(=O)c2c(O)ccc(O)c21 | 11.2µM* |
| Cc1cc(-c2ccccc2)nnc1NCCN1CCOCC1 | -9.8%&-8.8%&-4.9% |
| CCCCCCO | -2.2% |
| CN1CCN(C(c2ccccc2)c2ccccc2)CC1 | -7.3%&0.3% |
| CN1CCN(CCC(=O)N2c3ccccc3Sc3ccc(C(F)(F)F)cc32)CC1 | -5.1% |
| COc1cc(O)c2c(=O)cc(-c3ccc(OC)c(-c4c(O)cc(O)c5c(=O)cc(-c6ccc(O)cc6)oc45)c3)oc2c1 | ? |
| CC(=O)c1ccc(S(=O)(=O)NC(=O)NC2CCCCC2)cc1 | -11.0%&-6.1%&-0.7% |
| CC(=O)O[C@@]1(C(C)=O)CCC2C3C=C(Cl)C4=CC(=O)C5CC5[C@@]4(C)C3CC[C@]21C (stereo partly specified) | -6.4% |
| CN(C(=O)CCCOc1ccc2[nH]c(=O)ccc2c1)C1CCCCC1 | ? |
| CC[C@H](Cc1c(I)cc(I)c(N)c1I)C(=O)O | -6.7% |
| CCC[C@H](N[C@@H](C)C(=O)N1[C@@H]2CCCC[C@H]2C[C@H]1C(=O)O)C(=O)OCC | -16.2% |
| CCOc1ccc(NC(=O)Cn2cc(C(=O)c3ccco3)c3ccccc32)cc1 | -19.9% |
| COC(=O)C1=CO[C@@H](O[C@H]2OC(CO)C(O)C(O)C2O)C2C1CC(O)C2C (stereo partly specified) | -6.8% |
| C[C@@H](N)C1CCC(C(=O)Nc2ccncc2)CC1 (stereo partly specified) | -17.0%&-2.4% |
| c1ccc(CC2=NCCN2)cc1 | -7.5%&-3.1%&-0.3% |
| O=S(=O)(c1cccc2cnccc12)N1CCCNCC1 | -2.6%&-3.0% |
| COc1ccc(S(=O)(=O)N2c3ccc(Cl)cc3[C@](O)(c3ccccc3Cl)[C@@H]2C(=O)N2CCC[C@H]2C(N)=O)cc1OC | 0.4% |
| CCOc1ccccc1C(N)=O | -5.1% |
| O=c1cc(-c2ccc(O)cc2)oc2cc(OC3OC(CO)C(O)C(O)[C@H]3O[C@@H]3OC[C@@](O)(CO)C3O)cc(O)c12 (stereo partly specified) | -23.5% |
| Cc1nc2ccccn2c(=O)c1CCN1CCC(C(=O)c2ccc(F)cc2)CC1 | ? |
| Cn1c(=O)c2c(ncn2CC2OCCO2)n(C)c1=O | -10.2% |
| C1CCC(C(CC2CCCCN2)C2CCCCC2)CC1 (stereo unspecified) | -1.5%&1.8% |
| COc1ccc(C(=O)CC(=O)c2ccc(C(C)(C)C)cc2)cc1 | -5.7% |
| O=C(NCCc1c[nH]c2ccccc12)c1cccnc1 | -1.7% |
| C=CC1=C(C(=O)O)N2C(=O)C(NC(=O)/C(=N\O)c3csc(N)n3)C2SC1 (stereo unspecified) | -13.0% |
| CC(=O)c1ccc2c(c1)N(CCCN(C)C)c1ccccc1S2 | -12.2% |

Printed as active in HPGD inh, among the entries above:
| mol | HPGD inh |
| --- | --- |
| COc1ccc(/C=C/C(=O)Nc2ccccc2C(=O)O)cc1OC | 14.1µM*! |
| O=C1c2ccc(O)c(O)c2C(=O)c2c(O)ccc(O)c21 | 11.2µM* |

Going on with the list:
| mol | HPGD inh |
| --- | --- |
| CCCn1cnc2c1c(=O)n(CCCCC(C)=O)c(=O)n2C | -1.4% |
| CCCCCCCCCCCCCCC[C@H](O)[C@H](N)CO | -10.5% |
| CCC(C)n1ncn(-c2ccc(N3CCN(c4ccc(OCC5COC(Cn6cncn6)(c6ccc(Cl)cc6Cl)O5)cc4)CC3)cc2)c1=O (stereo unspecified) | -7.4% |
| CCOC(=O)C(CCc1ccccc1)NC(C)C(=O)N1Cc2ccccc2CC1C(=O)O (stereo unspecified) | -7.3% |
| O=c1[nH]c2cc(C(F)(F)F)c(N3CCOCC3)cc2n(CP(=O)(O)O)c1=O | -13.4% |
| CC[N+](C)(CC)CCOC(=O)C(O)(c1ccccc1)C1CCCCC1 (stereo unspecified) | 2.5% |
| Oc1ccc(/C=C/c2cc(O)cc(O)c2)cc1 | ? |
| C[C@]12CCC(=O)C=C1CC[C@@H]1[C@@H]2CC[C@@]2(C)[C@H]1CC[C@]2(O)C(=O)CO | -9.8%&-6.0% |
| CCOc1ccc(C(=O)OCCN(CC)CC)cc1 | -9.7%&-4.8% |
| Cc1ccccc1OC[C@H](O)CO | -10.3% |
| O=C(c1ccc(F)cc1)C1CCN(CCn2c(=O)[nH]c3ccccc3c2=O)CC1 | 3.55µM*! |
| CC(=O)C1CCC2C3CC(C)C4=CC(=O)CC[C@@]4(C)C3C(O)C[C@@]12C (stereo partly specified) | -0.7% |
| CCCN[C@@H](C)C(=O)Nc1c(C)csc1C(=O)OC | 1.5% |
| CC(COc1ccccc1)NC(C)C(O)c1ccc(O)cc1 (stereo unspecified) | -10.2%&2.1% |
| CN(C)CCOC(=O)[C@@H](c1ccccc1)C1(O)CCCC1 | -2.9% |
| c1ccc(CN(CC2=NCCN2)c2ccccc2)cc1 | -1.8%&-12.3%&-9.7%&-0.7%&-10.6% |
| COc1ccccc1N1CCN(CCCNc2cc(=O)n(C)c(=O)n2C)CC1 | -4.9%&-10.7%&-7.0%&4.0% |
| CCN(CC)CCOC(=O)C1(c2ccccc2)CCCC1 | -7.2% |

An excerpt from above in order of molar mass, ascending:
| mol | HPGD inh |
| --- | --- |
| c1ccc(CN(CC2=NCCN2)c2ccccc2)cc1 | -1.8%&-12.3%&-9.7%&-0.7%&-10.6% |
| CCCN[C@@H](C)C(=O)Nc1c(C)csc1C(=O)OC | 1.5% |
| CCN(CC)CCOC(=O)C1(c2ccccc2)CCCC1 | -7.2% |
| CC(=O)C1CCC2C3CC(C)C4=CC(=O)CC[C@@]4(C)C3C(O)C[C@@]12C (stereo partly specified) | -0.7% |
| O=C(c1ccc(F)cc1)C1CCN(CCn2c(=O)[nH]c3ccccc3c2=O)CC1 | 3.55µM*! |
